Compound activity: PubChem, National Center for Advancing Translational Sciences (NCATS)
D2 ag: agonists of human D2 dopamine receptor (beta-arrestin). activation, % (test concentration not listed). P14416. DiscoveRx PathHunter D2 beta-arrestin, luminescence, 90 min; 100% = 57 uM dopamine signal. 0.084% of 360,000 active; in the data active = activation above about 40%; inconclusive = about 15% to 40%; inactive = below about 15%; also: compound concentration not given in the record; the text of the record calls up to 30% inactive
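Agonist mode: compounds alone added to overnight-plated D2 PathHunter cells for 90 min at 37 C, with 57 uM final dopamine (EC100) defining full response. Beta-arrestin recruitment detected by chemiluminescent reagent, read after 1 h at ambient temperature.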
CtBP-E1A blk: blocks the CtBP interaction with E1A | AlphaScreen GST-E1A/His-CtBP binding, 1536-well; stronger effect = lower value; control for the full effect not named in the record | activity change, % (test concentration not listed) | 0.49% of 340,000 active | AID 651724; in the data active means activity change below about -65%; inconclusive means about -30% to -65%; inactive means above about -30%; also: % is scaled to controls: 0 for no effect and ±100 for the full control effect; compound concentration not given in the record
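AlphaScreen with 125 nM GST-E1A and 125 nM His-CtBP (5X stocks) in Tris pH 8.0, 300 mM NaCl, BSA, Tween 20, TCEP. Compounds preincubated 2 h at 37 deg C, then glutathione donor/nickel acceptor beads added for 1 h at 37 deg C in dark.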
D2 PAM: human D2 receptor positive allosteric modulation; DiscoveRx D2 beta-arrestin cells, luminescence, 90 min; 100% = 57 uM dopamine signal; 0.23% of 360,000 active; P14416; potentiation, % (concentration not given with the values); active = potentiation of 50% or more; inconclusive = 30% to 50%; inactive = 30% or less;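 also: compound concentration not given in the record; tested on top of an EC20 dose of dopamine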
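PathHunter beta-arrestin assay in DiscoveRx D2 cells. Compounds were added with an EC20 of dopamine (50 nM final) for 90 min at 37 deg C. Luminescence was read 1 h after detection reagent, with 57 uM dopamine as the EC100 control.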
Six1-Eya2 inh: Six1/Eya2 interaction inhibition; Q15475+O00167; AlphaScreen GST-Six1/His-Eya2 binding, biochemical; stronger effect = lower value; control for the full effect not named in the record; activity change, % (concentration not given with the values); 0.56% of 360,000 active; in the data active = activity change below about -65%; inconclusive = about -30% to -65%; inactive = above about -30%; also: % is scaled to controls: 0 for no effect and ±100 for the full control effect
Target sequence (O00167 whole entry, looked up): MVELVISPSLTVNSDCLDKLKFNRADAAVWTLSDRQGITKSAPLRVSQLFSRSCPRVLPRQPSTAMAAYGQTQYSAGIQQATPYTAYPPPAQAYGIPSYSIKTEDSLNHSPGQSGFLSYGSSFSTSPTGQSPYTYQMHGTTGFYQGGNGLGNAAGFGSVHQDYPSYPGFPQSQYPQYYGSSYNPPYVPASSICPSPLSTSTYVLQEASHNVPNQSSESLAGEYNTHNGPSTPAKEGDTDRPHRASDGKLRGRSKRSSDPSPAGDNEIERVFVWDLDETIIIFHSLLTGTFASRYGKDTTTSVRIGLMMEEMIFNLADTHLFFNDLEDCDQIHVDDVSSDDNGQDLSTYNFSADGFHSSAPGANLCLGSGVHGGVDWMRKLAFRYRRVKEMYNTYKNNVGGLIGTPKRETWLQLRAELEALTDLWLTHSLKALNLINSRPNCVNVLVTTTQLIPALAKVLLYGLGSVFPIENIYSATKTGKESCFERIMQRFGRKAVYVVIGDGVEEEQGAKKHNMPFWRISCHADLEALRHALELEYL
Target sequence (Q15475 whole entry, looked up): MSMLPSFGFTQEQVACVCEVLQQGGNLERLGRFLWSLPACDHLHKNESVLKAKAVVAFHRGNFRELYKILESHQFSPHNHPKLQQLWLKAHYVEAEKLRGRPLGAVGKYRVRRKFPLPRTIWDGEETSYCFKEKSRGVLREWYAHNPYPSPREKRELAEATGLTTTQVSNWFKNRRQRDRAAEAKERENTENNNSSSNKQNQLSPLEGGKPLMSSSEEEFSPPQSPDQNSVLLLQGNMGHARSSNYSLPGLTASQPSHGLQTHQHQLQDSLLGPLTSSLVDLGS
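Compounds are tested against tagged Six1 and Eya2 proteins bridged by glutathione donor and nickel acceptor beads; after a one-hour incubation at 37 °C without light, AlphaScreen emission is recorded.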
gsp antagonist: antagonists of gsp mutant (McCune-Albright syndrome). 0.4% of 340,000 active. AID 624288. gsp-mutant cells, cAMP HTRF, 30 min; control for the full effect not named in the record. Potency, µM (highest dose often 76.9 µM), without a hit: at the top dose activity change, negative = inhibition, most hits filed as inhibitors; active = falling curve of any shape with a large fitted effect; inconclusive = falling curve, mostly with a smaller effect; inactive = flat or rising curve; cell line not stated here;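 also: intracellular cAMP measured with PDE inhibitor Ro 20-1724 present during compound exposure; potency is read from the fitted curve at half-maximal effect; % is scaled to controls: 0 for no effect and ±100 for the full control effect; nearly all actives have a fitted effect of over 65% in size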
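Cells in G418 medium, seeded 16-24 h, 37C; buffer exchange to DPBS + 1 mM CaCl2, 0.5 mM MgCl2, 0.05% BSA; cpds in DMSO + […] (300 uM stock), 30 min 37C; HTRF cAMP detection.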
gsp agonist: activates gsp, the McCune-Albright syndrome mutation. gsp mutant cells, cAMP HTRF, 30 min; control for the full effect not named in the record. Potency, µM (series often up to 76.9 µM), without a hit: at the highest dose activation (cAMP increase), usual class: activators. 0.13% of 340,000 active. AID 624287; active = well fitted activation curve with a large enough effect; inconclusive = small, poorly fitted or top-dose-only effect, or another doubt; inactive = no such curve, though single readings can be large or run the other way; cell line not stated here;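 also: phosphodiesterase inhibitor Ro 20-1724 added with compounds to block cAMP breakdown; potency is read from the fitted curve at half-maximal effect; nearly all actives have a fitted effect of over 60% in size; about a fifth of the inactives were tested at one dose only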
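Cells stably selected in G418 were plated at 2000/well, grown 16-24 hr, then given compounds in DMSO with the PDE inhibitor […] (300 uM solution added) for 30 min at 37C; cAMP was read by HTRF.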
An asterisk follows results filed as active; u = inconclusive; x = not tested or not shown; [ ] = another dose, or the depositor's remark.

Letter code: A = D2 ag; B = CtBP-E1A blk; C = D2 PAM; D = Six1-Eya2 inh; E = gsp antagonist; F = gsp agonist
[1] O=C(NCc1ccccc1Cl)c1ccc(-c2ccccc2)cc1
  A: 10.4 | B: 3.8 | C: 18.9 | D: 8.0 | E: 10.7% | F: 3.6%
[2] CC(OC(=O)C1=COCCO1)C(=O)NC1(C#N)CCCCC1 (centres undefined)
  A: -1.7 | B: 2.7 | C: -1.0 | D: 6.7 | E: -1.8% | F: -9.8%
[3] CSc1nc(C)c2c(n1)N(c1ccc(O)cc1)CC2
  A: -6.2 | B: u | C: -5.7 | D: u | E: 0.3% | F: u
[4] CC(=O)c1c(O)cc(C)n(Nc2nc(C)cc(C)n2)c1=O
  A: -1.0 | B: u | C: -7.0 | D: u | E: 3.8% | F: -6.7%
[5] Cc1cc(C(=O)N2CCC(CO)(Cc3cccc(C(F)(F)F)c3)CC2)n[nH]1
  A: 1.9 | B: 0.2 | C: -0.5 | D: -2.4 | E: -5.4% | F: 13.8%
[6] C[C@H](NC(N)=O)C(=O)OCC(=O)NCc1cccs1
  A: -2.5 | B: -7.4 | C: -8.4 | D: 6.6 | E: 4.0% | F: -5.0%[15.4 µM]
[7] CNC(=S)N/N=C/c1ccccc1OCC(=O)O
  A: -3.1 | B: 2.7 | C: -4.6 | D: 1.4 | E: 4.4% | F: 20.9%[15.4 µM]
[8] O=C(CCc1ccccc1O)N/N=C/c1ccc(Sc2cccc3cccnc23)o1
  A: 8.2 | B: -92.2* | C: 14.5 | D: -87.8* | E: 3.4% | F: 0.0%
[9] CCCN(C(=S)Nc1ccccc1)C1CCS(=O)(=O)C1 (centres undefined)
  A: -2.9 | B: 6.4 | C: -7.8 | D: 0.8 | E: 17.4% | F: u
[10] COc1ccc(NC(=O)c2c(F)cccc2Cl)cc1S(=O)(=O)N1CCOCC1
  A: 0.8 | B: -9.4 | C: -29.1 | D: -3.3 | E: 6.9% | F: -4.3%[15.4 µM]

Arranged by heavy-atom count (largest number first): some entries from above.
Letter code: A = D2 ag; B = CtBP-E1A blk; C = D2 PAM; D = Six1-Eya2 inh; E = gsp antagonist; F = gsp agonist
[8] O=C(CCc1ccccc1O)N/N=C/c1ccc(Sc2cccc3cccnc23)o1
  A: 8.2 | B: -92.2* | C: 14.5 | D: -87.8* | E: 3.4% | F: 0.0%
[1] O=C(NCc1ccccc1Cl)c1ccc(-c2ccccc2)cc1
  A: 10.4 | B: 3.8 | C: 18.9 | D: 8.0 | E: 10.7% | F: 3.6%
[2] CC(OC(=O)C1=COCCO1)C(=O)NC1(C#N)CCCCC1 (centres undefined)
  A: -1.7 | B: 2.7 | C: -1.0 | D: 6.7 | E: -1.8% | F: -9.8%
[4] CC(=O)c1c(O)cc(C)n(Nc2nc(C)cc(C)n2)c1=O
  A: -1.0 | B: u | C: -7.0 | D: u | E: 3.8% | F: -6.7%
[9] CCCN(C(=S)Nc1ccccc1)C1CCS(=O)(=O)C1 (centres undefined)
  A: -2.9 | B: 6.4 | C: -7.8 | D: 0.8 | E: 17.4% | F: u
[3] CSc1nc(C)c2c(n1)N(c1ccc(O)cc1)CC2
  A: -6.2 | B: u | C: -5.7 | D: u | E: 0.3% | F: u

(listing goes on)
Letter code: A = D2 ag; B = CtBP-E1A blk; C = D2 PAM; D = Six1-Eya2 inh; E = gsp antagonist; F = gsp agonist
[11] C/C=C(/C)C(=O)O[C@@H]1c2c(ccc3ccc(=O)oc23)OC(C)(C)[C@@H]1OC(C)=O
  A: -0.1 | B: 0.1 | C: -51.9 | D: 0.8 | E: -10.7% | F: x
[12] CCCCCC(=O)N1C[C@@H](O)[C@H](n2cc(COC(=O)c3ccccc3)nn2)C[C@@H]1c1ccc(Cl)cc1
  A: -0.1 | B: 0.0 | C: -6.0 | D: 1.0 | E: x | F: -41.2%[inhibitor]
[13] CCn1cc(C(=O)N[C@@H](CCSC)C(=O)NCCCN2CCOCC2)c(=O)c2cc3c(cc21)OCO3
  A: 0.5 | B: -4.1 | C: -14.1 | D: -3.7 | E: 9.5% | F: 30.3%
[14] Cc1ccc(NC(=O)COC(=O)c2ccc(S(=O)(=O)N3CCCCC3)cc2)cc1
  A: -1.6 | B: 1.7 | C: -3.5 | D: -3.3 | E: 12.9% | F: -97.3%[inhibitor]
[15] Cc1ccnc(NC(=O)CCC(=O)N(Cc2ccco2)C(C(=O)NC(C)C)c2ccc(F)cc2)c1 (centres undefined)
  A: -0.9 | B: 0.4 | C: -2.9 | D: -1.3 | E: 1.2% | F: -2.4%[15.4 µM]
[16] O=S(=O)(Nn1cnnc1)c1ccccc1
  A: -1.9 | B: -0.8 | C: -7.1 | D: 3.4 | E: 2.4% | F: -33.8%[inhibitor]
[17] COc1ccc(/C=N/NC(=O)C[n+]2ccccc2)c(OC)c1OC
  A: -2.6 | B: 0.7 | C: -26.6 | D: 0.2 | E: 2.1% | F: 1.4%
[18] COc1ccc(N(CC(=O)NCCc2ccccc2)C(=O)CCC(=O)Nc2ccccn2)cc1
  A: 0.1 | B: 6.0 | C: -12.2 | D: -10.4 | E: -7.3% | F: 3.6%[15.4 µM]
[19] COc1ccc(NC(=O)CS(=O)CC(=O)NCC2OCCc3ccccc32)cc1 (centres undefined)
  A: -5.1 | B: 0.1 | C: -6.1 | D: 5.3 | E: 5.4% | F: -12.5%
[20] O=C(OCc1nc2ccccc2[n+]([O-])c1C(=O)c1ccccc1)c1cccs1
  A: -4.7 | B: -15.6 | C: -13.5 | D: -8.6 | E: 3.4% | F: -2.8%

Letter code: A = D2 ag; B = CtBP-E1A blk; C = D2 PAM; D = Six1-Eya2 inh; E = gsp antagonist; F = gsp agonist
[21] CC(=O)N1c2ccc(S(=O)(=O)N3CCC(C(=O)NC(C)c4ccccc4)CC3)cc2CC1C (centres undefined)
  A: -1.8 | B: -0.7 | C: -5.1 | D: 6.1 | E: 3.3% | F: -0.3%
[22] Cc1cccc(N2CCN(C(=O)CCS(=O)(=O)c3ccc4c(c3)NC(=O)C(C)S4)CC2)c1C (centres undefined)
  A: 5.4 | B: -14.4 | C: -7.5 | D: 4.1 | E: -28.1% | F: -39.5%[inhibitor]
[23] Cc1cnn(C(=S)NCc2ccco2)c1
  A: -0.8 | B: -3.6 | C: -4.4 | D: -8.2 | E: 6.6% | F: -47.1%
[24] O=Cc1cn(CC(=O)N2CCCCCC2)c2ccccc12
  A: -7.0 | B: 0.8 | C: -2.8 | D: -0.8 | E: -12.8% | F: u
[25] COc1ccc(NC(=O)c2nn(C)c(C(=O)Nc3ccc(OC)cc3)c2[N+](=O)[O-])cc1
  A: -5.5 | B: -7.6 | C: -8.4 | D: -0.7 | E: 5.8% | F: 0.1%
[26] Cc1ccc(C)c(NC2CCCCC2NS(=O)(=O)c2ccccc2)c1 (centres undefined)
  A: -2.9 | B: x | C: -15.1 | D: u | E: -7.8% | F: 22.2%
[27] COC(=O)c1sccc1-n1cc(C#N)c(=O)n(C)c1=O
  A: -1.1 | B: 5.6 | C: -8.8 | D: 14.8 | E: -9.4% | F: 3.6%[15.4 µM]
[28] CC(=O)c1sc(NC(=O)c2ccc(Cn3cc(Br)cn3)o2)nc1C
  A: 1.5 | B: -6.6 | C: -0.1 | D: -20.6 | E: -1.2% | F: 0.5%
[29] CCCS(=O)(=O)N1CCCC(C(=O)NC2CCCCC2)C1 (centres undefined)
  A: -3.5 | B: 13.3 | C: -7.5 | D: 2.2 | E: 20.3% | F: -41.4%[inhibitor]
[30] Cc1cccc(Nc2nnc(SCC(=O)Nc3ncc(C(F)(F)F)cc3Cl)s2)c1C
  A: -4.2 | B: 4.4 | C: 11.3 | D: -4.4 | E: -30.6% | F: 5.8%

Letter code: A = D2 ag; B = CtBP-E1A blk; C = D2 PAM; D = Six1-Eya2 inh; E = gsp antagonist; F = gsp agonist
[31] C#CC1(N2CCCCC2)CCCCC1
  A: 1.1 | B: 2.1 | C: -2.9 | D: 9.8 | E: x | F: -2.1%
[32] O=C(NCC1CCS(=O)(=O)C1)NCC1CCS(=O)(=O)C1 (centres undefined)
  A: -2.8 | B: 3.4 | C: -16.3 | D: 4.5 | E: 12.6% | F: u
[33] Cn1nnnc1SCC(=O)Nc1cccc(S(=O)(=O)N2CCCCC2)c1
  A: 1.2 | B: -0.5 | C: -2.6 | D: 1.1 | E: 9.4% | F: u
[34] COc1cc(C(c2c(NC(=O)c3ccco3)sc(C)c2C)N2CCOCC2)cc(OC)c1OC (centres undefined)
  A: -5.4 | B: -1.8 | C: -32.8 | D: -15.0 | E: 4.0% | F: 10.5%
[35] CC(C)=CCOc1ccc2ccc(=O)oc2c1
  A: -4.1 | B: 10.8 | C: -9.8 | D: -6.0 | E: 4.0% | F: x
[36] Cc1cc(C)cc(NC(=O)Cn2c(-c3ccccc3Cl)nc3ccccc32)c1
  A: -2.4 | B: -5.1 | C: -20.2 | D: -3.2 | E: -13.3% | F: 9.9%
[37] CC(C)(C)c1ccc(C(=O)N2CCC2(C)C(=O)NCC(F)(F)F)cc1 (centres undefined)
  A: -1.7 | B: 5.3 | C: -7.1 | D: 1.4 | E: x | F: x
[38] O=C(CC1CCCC1)NCCS(=O)(=O)N1CCN(c2ccc(F)cc2)CC1
  A: -7.9 | B: -16.2 | C: 4.5 | D: 3.5 | E: 9.1% | F: 2.1%
[39] CCOC(=O)c1oc2c(CN3CCN(C)CC3)c(O)c(CC)cc2c(=O)c1-c1nc2ccccc2s1
  A: 0.1 | B: -1.1 | C: -7.0 | D: 5.3 | E: 7.4% | F: u
